Compound activity from PubChem.
Rango complex inh = inhibitors of Rango-importin beta complex formation. Q14974. Rango CFP/YFP FRET sensor + importin beta, 45 min. Potency, µM (doses to about 92.2 µM), inactives show at the top dose inhibition of complex formation. actives 0.031% (n = 340,000); active = rising FRET ratio curve, often small or poorly fitted; inconclusive = mostly compound fluorescence or quenching in the first reads; inactive = flat curves in all reads;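 also: potency is read from the fitted curve at half-maximal effect; 0% = DMSO wells and 100% = buffer wells lacking importin beta; nearly all actives have a fitted effect of over 15% in size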
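FRET biosensor Rango (snurportin 1 IBB between N-terminal EYFP and C-terminal Cerulean), 50 nM in PBS/1 mM DTT/0.02% Tween-20/0.1% BSA, preincubated 5 min RT with compound; 0.125 microM importin beta added, 45 min RT, CFP/YFP FRET ratio read.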
miR-21 reporter = miR-21 reporter, rising signal; HeLa miR-21 FLuc reporter, luciferase, 48 h; Potency, µM (series often up to 38.3 µM), inactives show at the highest dose reporter change, positive = more light; 340,000 tested, under 10 active; AID 2288; active = well fitted rising curve with a large enough effect; inconclusive = small, poorly fitted or top-dose-only effect; inactive = no such curve, though single readings can be large or run the other way;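 also: % of control where 0% means no effect; miR-21 action dims this reporter so a rising signal means less miR-21 action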
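HeLa miR-21-FLuc reporter line, endogenous miR-21; 2000 cells/well in DMEM/10% FBS; compound titration up to ~40uM final, 48 h, 37 degree Celsius; luciferase detection reagent, 15 min lysis, CCD luminescence.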
Rango release inh = prevents RanGTP from dissociating the Rango-importin beta complex | Biochemical FRET Rango-importin beta, RanGTP-induced dissociation | Potency, µM (highest dose often 46.1 µM), for inactives: top-dose activity change, negative = inhibition | actives 0.071% (n = 340,000) | AID 540253; active means falling FRET ratio curve, often poorly fitted, with flat reads before Ran was added; inconclusive means other falling curves, or compound fluorescence or quenching; inactive means flat or rising ratio curve;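 also: potency is read from the fitted curve at half-maximal effect; % of control where 0% means no effect; nearly all actives have a fitted effect of over 45% in size; -100% = wells without RanGTP and RCC1; the record marks most hits as doubtful in a second field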
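Rango FRET biosensor (snurportin-1 IBB flanked by N-terminal EYFP and C-terminal CFP10) at 0.1 uM, with 0.25 uM importin beta in PBS, 1mM DTT, 0.02% Tween-20, 0.1% BSA. 0.6 uM Ran, 2mM GTP and 0.2 uM RCC1 were then added for 45 min at room temperature. Inhibition read as loss of FRET rise.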
GLA inh pH 4.5 = inhibitors of human alpha-galactosidase A at pH 4.5; P06280; purified enzyme, 4-MU-alpha-Gal fluorescence, pH 4.5; activity change, negative = inhibition, % at 105 µM; 230,000 tested, under 10 active; AID 1467; inconclusive = small, poorly fitted or top-dose-only inhibition, or a rising curve; inactive = flat fitted curve, though single readings scatter; no compound was filed as active;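 also: 0% = full activity with enzyme and -100% = basal without enzyme; dose as in the result columns while the protocol names 77 µM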
Target sequence (P06280 whole entry, looked up): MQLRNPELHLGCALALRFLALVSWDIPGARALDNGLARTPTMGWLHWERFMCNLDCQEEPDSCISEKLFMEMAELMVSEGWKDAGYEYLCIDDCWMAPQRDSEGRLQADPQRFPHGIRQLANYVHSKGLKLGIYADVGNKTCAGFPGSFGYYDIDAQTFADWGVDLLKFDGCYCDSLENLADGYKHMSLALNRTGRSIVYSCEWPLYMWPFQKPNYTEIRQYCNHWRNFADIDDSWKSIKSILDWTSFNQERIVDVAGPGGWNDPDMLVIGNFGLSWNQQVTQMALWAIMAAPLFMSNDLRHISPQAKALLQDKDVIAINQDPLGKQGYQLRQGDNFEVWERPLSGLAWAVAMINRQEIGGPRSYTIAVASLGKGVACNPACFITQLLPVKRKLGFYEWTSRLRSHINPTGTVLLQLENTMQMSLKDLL
Numbers without * were called inactive; ? = inconclusive; / = not tested or not shown; [ ] = another dose, or the depositor's remark.

SMILES	Rango complex inh	miR-21 reporter	Rango release inh	GLA inh pH 4.5
COc1ccc(OCC(=O)Nc2ccc(N3CCN(C(=O)c4ccco4)CC3)cc2)cc1	-3.1%	-17%	-1%	5
CCOC(=O)c1c(C)[nH]c(C(=O)CSc2nnnn2-c2ccccc2)c1C	-0.7%	-4%	-12%	4
c1coc(CN(Cc2cccs2)Cc2nnnn2C2CCCCC2)c1	-0.3%	-1%	14%	1
Cn1cnnc1SCC(=O)Nc1ccc(N2CCOCC2)cc1	-4.9%	3%	-12%	0
Cc1cc(-c2nnc(CCC(=O)N(C)C(C)c3cccs3)o2)no1 (configuration not stated)	4.2%	-24%	1%	-5
Clc1ccc(-n2nnnc2-c2ccccc2)cc1Cl	11%	-22%	21%	-3
O=C(Nc1ccc2c(c1)OCO2)c1cccc(Cl)c1	3.3%	-42%	?	?
Cc1c(C(=O)c2ccc([N+](=O)[O-])cc2)c(=O)n(C)c(=O)n1C	1.9%	3%	-3%	6
CC(C(=O)N1CCCc2ccccc21)N1CCN(S(=O)(=O)c2ccccc2F)CC1 (configuration not stated)	0.6%	-11%	-3%	5
Cc1nc2ccccn2c1C(=O)Nc1ccc(Cl)cc1	-0.3%	-48%	8%	11
O=C(Nc1ccccc1)c1ccn[nH]1	1.8%	-43%	4%	-2
Brc1ccc(N=C/C=C/C=C/Nc2ccc(Br)cc2)cc1	-4.3%	-18%	-8%	3
Cc1ccc(N(Cc2cc3cc(C)ccc3[nH]c2=O)S(=O)(=O)c2ccccc2)cc1	0.1%	0%	-6%	-16
COc1ccc2c(c1)N(C)C(=O)CC(c1ccccc1)=N2	-6.1%	-7%	11%	-2
CCN(CC)c1ccc(/C=N/NC(=O)Cc2cccs2)cc1	-0.2%	-31%	-9%	-2
Cc1cccc(N(C(=O)CNC(=O)c2cccs2)C(C(=O)NC2CCCC2)c2ccncc2)c1 (configuration not stated)	-1.5%	0%	1%	/
CC12CN3CC(C)(CN(C1)C3c1ccc3c(c1)OCO3)C2=O (configuration not stated)	-3.2%	-1%	-18%	2
CC(NC(=O)C1CCN(S(=O)(=O)N2CCCCCC2)CC1)c1ccccc1 (configuration not stated)	1.6%	7%	10%	6
Cc1ccc(-c2nnc(SCC(=O)N/N=C/c3ccccc3C(=O)O)n2-c2ccccc2)cc1	/	-7%	/	-1
CCCOc1cccc(C2/C(=C(/O)c3ccc4c(c3)CC(C)O4)C(=O)C(=O)N2CCN2CCOCC2)c1 (configuration not stated)	0.9%	-3%	-15%	/
Nc1nc2nc(-c3cccs3)cc(C(F)(F)F)n2n1	?	-28%	?	?
CCOc1ccccc1NC(=O)C1CCCN1S(=O)(=O)c1ccccc1C(F)(F)F (configuration not stated)	-0.3%	/	-5%	/
CCN1CCCC1CNC(=O)C(=O)NCCc1ccc(OC)c(OC)c1 (configuration not stated)	6.5%	-2%	-11%	5
Nc1nc(SCc2nc3scc(-c4cccs4)c3c(=O)[nH]2)n[nH]1	0.6%	-13%	-14%	4
COc1ccc(NC(=O)c2cc(-c3ccco3)nc3ccccc23)cn1	-2.2%	/	-11%	/
CNC(=O)c1ccc(NC(=O)Nc2ccccc2)cc1	3.1%	-51%	-11%	/
COc1ccccc1NC(=O)c1csc2c1CCCC2	-0.4%	-20%	7%	5
COc1ccccc1NS(=O)(=O)c1ccc2oc(SCC(C)=O)nc2c1	2.0%	0%	-5%	/
O=C(COC(=O)CNC(=O)c1ccc(Cl)c([N+](=O)[O-])c1)NNC(=O)c1ccccc1F	4.5%	/	-12%	/
N#Cc1cncc(-c2ccc3c(c2)OCCOCCOCCOCCOCCO3)n1	-1.2%	-2%	2%	8
CCN(CC)c1ccc(C(=O)N/N=C(\C)c2cccc(OC)c2)cc1	-0.3%	-5%	-3%	3
CCOc1ncccc1C(=O)OCC(=O)N1CCN(S(=O)(=O)c2ccc(Cl)cc2)CC1	5.4%	-3%	-9%	-1
Cc1ccc(N(C(=O)CCl)C(C(=O)NC2CCCCC2)c2cccnc2)cc1C (configuration not stated)	-2.4%	29%	-10%	3
COc1ccc(OC)c(Nc2nc(NCCC(C)C)nc(N)c2[N+](=O)[O-])c1	-2.4%	-6%	2%	-11
CC(=O)Nc1ccc(OCC(O)CN2CCN(c3cccc(Cl)c3)CC2)cc1 (configuration not stated)	0.3%	-2%	6%	-3
Cc1ccc(Oc2cnc3ccccc3n2)cc1	-0.7%	-22%	1%	-3
O=C(c1ccc(COc2ccccc2Br)cc1)N1CCCCCC1	-4.3%	-40%	3%	10
O=C(CCN1C(=O)/C(=C\c2ccccc2)SC1=S)NCCCN1CCOCC1	3.9%	-1%	-12%	/
CCOc1ccc(CCNC(=O)C2CC=CCC2C(=O)OC(C)C)cc1OCC (configuration not stated)	-2.8%	-6%	-15%	/
Cc1scc(C(=O)N/N=C/c2ccc(Cl)s2)c1C	-2.1%	-76%	?	4
N/C(Cc1ccc(Cl)c(Cl)c1)=N\OC(=O)c1cccs1	0.3%	6%	-7%	9
c1ccc2c(c1)c1c(c3ccccc32)CN2CCCC2C1 (configuration not stated)	0.4%	/	?	/
Cc1cc(Nc2ccccc2)n(C(=O)c2ccccc2)n1	0.6%	-22%	6%	-13
c1ccc(Cc2nnc3sc(-c4cccnc4)nn23)cc1	1.8%	-10%	22%	-2
O=S(=O)(Cc1cc(-c2ccccc2Cl)no1)c1ccccc1	2.2%	-68%	20%	-5
Cc1ccc(NC(=O)CNc2ccc(OC(C)C)cc2)c(C)c1	-1.9%	-14%	18%	-2
CS(=O)(=O)N1CCN(C(=O)c2ccc3c(c2)OCCO3)CC1	-0.6%	0%	-10%	/
CN(C)CCCNC(=O)c1ccccc1Oc1ccccc1	0.2%	-19%	7%	4
NC1=NC(=O)/C(=C/c2ccc(-c3ccc(S(N)(=O)=O)cc3)o2)S1	?	-4%	?	/
COc1ccccc1C(=O)NS(=O)(=O)c1ccc(C)cc1	3.4%	/	?	/
CC1CCCC(NC(=O)COC(=O)c2ccc(Cl)nc2)C1C (configuration not stated)	0.2%	/	-10%	/
CCOc1cc(/C=C(\C#N)C(=O)NCc2cccnc2)ccc1O	2.1%	9%	-10%	-13[21.1 µM]
CCc1ccc(C(=O)/C=C/Nc2ccc(S(=O)(=O)Nc3onc(C)c3C)cc2)cc1	?	-50%	-25%	-12
Cc1ccc(NC(=O)C2COc3ccccc3O2)cc1 (configuration not stated)	-1.4%	-32%	10%	/
COCC(C)NC(C(=O)Nc1ccc(Cl)c([N+](=O)[O-])c1)c1ccccc1 (configuration not stated)	1.4%	-4%	?	4
Cc1ccc(CN2CC(=O)N3[C@H]4c5ccccc5OC[C@@H]4[C@H](c4ccccc4)[C@]3(C)C2=O)cc1	-2.0%	/	20%	/
Cn1ncc(Cl)c1C(=O)N/N=C/c1ccccn1	-0.5%	3%	1%	-3
CCOc1ccc2nc(N(CCCN(C)C)C(=O)c3ccc(C(=O)c4ccccc4)cc3)sc2c1	-2.0%	13%	-2%	/
Cc1ccc(CN2CCC(c3cc(-c4cccs4)n[nH]3)CC2)cc1	-3.6%	-2%	-9%	0
Cc1ccc(C(=O)N2CCCC(N3CCN(c4cccc(C(F)(F)F)c4)CC3)C2)s1 (configuration not stated)	-0.4%	-2%	11%	/
Other structures follow.
SMILES	Rango complex inh	miR-21 reporter	Rango release inh	GLA inh pH 4.5
COc1cccc(C2(c3cccc(OC)c3)CC2C(=O)Nc2cccc3ccccc23)c1 (configuration not stated)	2.0%	-8%	0%	3
COc1cc2c(cc1OC)C(C)N(C(=O)c1ccc(Cl)c(S(=O)(=O)N3CCCCC3)c1)CC2 (configuration not stated)	-3.7%	18%	4%	/
COc1ccc(C)cc1S(=O)(=O)Nc1cc2c3c(c1)CCN3C(=O)CC2	0.0%	/	21%	/
c1cnc2ccc(C(c3nnnn3C3CCCC3)N3CCN4CCCC4C3)cc2c1 (configuration not stated)	1.1%	2%	3%	3
CCn1nnnc1NC(=O)c1ccc2ccccc2c1	0.0%	2%	1%	-5
CCn1c(COc2ccccc2C)nnc1SCC(=O)O	-0.8%	-5%	-3%	-3
CC(=O)Nc1ccc(C(=O)NNC(=O)c2ccc(Cl)cc2)cc1	0.0%	0%	4%	/
Cc1ccccc1CC1S/C(=N/N=C/c2ccco2)NC1=O (configuration not stated)	/	0%	/	-2
CS(=O)(=O)N1CCN(C(=O)CCC2CCCC2)CC1	2.2%	1%	2%	0
COc1ccc(Nc2nc(Cl)nc(NCc3ccco3)n2)c(OC)c1	-1.7%	1%	-12%	7
CC(C)CC(=O)C1=C(O)C(=O)N(Cc2ccccc2)C1c1ccccc1 (configuration not stated)	0.1%	-2%	5%	/
Cc1cc2oc(C(=O)NCc3ccc4c(c3)OCO4)c(C)c2cc1C	0.8%	-1%	-5%	-9
COc1ccc(C)cc1NC(=O)C(=O)NCc1ccncc1	0.3%	-11%	11%	-8
CC1(C)C(=O)Nc2ccccc2N1C(=O)COc1ccccc1C#N	-0.5%	/	0%	/
CCCN1CCN(CCCNC(=S)Nc2ccc(F)cc2)CC1	-1.6%	-4%	5%	6
Cc1cc(C)cc(NC(=S)N(Cc2ccc(Br)cc2)Cc2ccc(C(=O)O)cc2)c1	-0.8%	3%	18%	-12
O=C(NCc1cc(F)cc(C(F)(F)F)c1)C1CCC(=O)N(C2CCCC2)C1 (configuration not stated)	-10%	-20%	8%	/
COc1ccc(CCNC(=O)C(C)Sc2ccccc2)cc1OC (configuration not stated)	0.8%	-2%	35%	3
CCOC(=O)c1cc(C)n(CCc2ccccc2)c1C	4.2%	-27%	-5%	-8
CCn1c(SCC(=O)NNC(=O)c2ccc(C)cc2)nnc1C1CC1	-0.8%	-6%	-8%	/
COc1ccccc1-c1cc(C(=O)N/N=C/c2ccoc2)c2ccccc2n1	-0.3%	1%	10%	/
Cc1ccccc1OCC(O)CN1CCCCC1 (configuration not stated)	0.2%	-8%	8%	0

Among those listed so far, these have a thiophene ring, fused or not:
SMILES	Rango complex inh	miR-21 reporter	Rango release inh	GLA inh pH 4.5
c1coc(CN(Cc2cccs2)Cc2nnnn2C2CCCCC2)c1	-0.3%	-1%	14%	1
Cc1cc(-c2nnc(CCC(=O)N(C)C(C)c3cccs3)o2)no1 (configuration not stated)	4.2%	-24%	1%	-5
CCN(CC)c1ccc(/C=N/NC(=O)Cc2cccs2)cc1	-0.2%	-31%	-9%	-2
Cc1cccc(N(C(=O)CNC(=O)c2cccs2)C(C(=O)NC2CCCC2)c2ccncc2)c1 (configuration not stated)	-1.5%	0%	1%	/
Nc1nc2nc(-c3cccs3)cc(C(F)(F)F)n2n1	?	-28%	?	?
Nc1nc(SCc2nc3scc(-c4cccs4)c3c(=O)[nH]2)n[nH]1	0.6%	-13%	-14%	4
COc1ccccc1NC(=O)c1csc2c1CCCC2	-0.4%	-20%	7%	5
Cc1scc(C(=O)N/N=C/c2ccc(Cl)s2)c1C	-2.1%	-76%	?	4
N/C(Cc1ccc(Cl)c(Cl)c1)=N\OC(=O)c1cccs1	0.3%	6%	-7%	9
Cc1ccc(CN2CCC(c3cc(-c4cccs4)n[nH]3)CC2)cc1	-3.6%	-2%	-9%	0
Cc1ccc(C(=O)N2CCCC(N3CCN(c4cccc(C(F)(F)F)c4)CC3)C2)s1 (configuration not stated)	-0.4%	-2%	11%	/

Not all compounds are listed; count on the stated rates, not on these rows.
